Methyltransferases – Primary Screen for Target Class Profiling of Small Molecule Inhibitors of Methyltransferases | purified enzyme, MTase-Glo SAH luminescence; stronger effect = lower value | 25,000 compounds, 3.9% hits | calls only at 40 µM; active = -50% or lower on at least one of six enzymes; inconclusive = the cases between; inactive = as a rule above -30% on all six;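 also: enzymes were COMT GAMT GNMT HNMT NNMT and PNMT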
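Each enzyme was assayed with SAM and its substrate. SAH formation detected by MTase-Glo luminescence; single-point 40 uM screen[…].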
Calls only; i = inactive; ? = inconclusive; + = active, no number. % is scaled to controls: 0 for no effect and ±100 for the full control effect.

Start of the data: the first 7 entries (preview)
#1 COCCc1noc(CNC(=O)C2COc3ccccc3C2)n1 (stereo unspecified)
  Methyltransferases: i
#2 COC(=O)C1=COC(O[C@@H]2O[C@H](CO)[C@@H](O)[C@H](O)[C@H]2O)/C(=C\COC(=O)c2ccc(OC3OC(CO)C(O)C(O)C3O)c(OC)c2)C1CC(=O)OCCc1ccc(O)cc1 (stereo partly specified)
  Methyltransferases: i
#3 C=C1C(=O)O[C@H]2[C@H]1[C@@H](OC(=O)/C(C)=C\C)C[C@]1(C)O[C@@H]1[C@H]1O[C@H]1C(=C)[C@H]2O
  Methyltransferases: i
#4 Cc1cc(CO)c(O)c(C(=O)CC2CC(=O)NC(=O)C2)c1
  Methyltransferases: i
#5 C[N+]1(C)[C@@H]2CC[C@H]1CC(OC(=O)C(O)c1ccccc1)C2 (stereo partly specified)
  Methyltransferases: i
#6 COc1ccc2cc3n(c2c1)CC(C)(C(=O)NC1CCCC1)N(Cc1ccc(F)cc1)C3=O (stereo unspecified)
  Methyltransferases: i
#7 CC(=O)N1CCC(Cc2ccc(C(=O)N(C)Cc3cccnc3)cc2)CC1
  Methyltransferases: i

The list itself, from the start:
#1 COCCc1noc(CNC(=O)C2COc3ccccc3C2)n1 (stereo unspecified)
  Methyltransferases: i
#2 COC(=O)C1=COC(O[C@@H]2O[C@H](CO)[C@@H](O)[C@H](O)[C@H]2O)/C(=C\COC(=O)c2ccc(OC3OC(CO)C(O)C(O)C3O)c(OC)c2)C1CC(=O)OCCc1ccc(O)cc1 (stereo partly specified)
  Methyltransferases: i
#3 C=C1C(=O)O[C@H]2[C@H]1[C@@H](OC(=O)/C(C)=C\C)C[C@]1(C)O[C@@H]1[C@H]1O[C@H]1C(=C)[C@H]2O
  Methyltransferases: i
#4 Cc1cc(CO)c(O)c(C(=O)CC2CC(=O)NC(=O)C2)c1
  Methyltransferases: i
#5 C[N+]1(C)[C@@H]2CC[C@H]1CC(OC(=O)C(O)c1ccccc1)C2 (stereo partly specified)
  Methyltransferases: i
#6 COc1ccc2cc3n(c2c1)CC(C)(C(=O)NC1CCCC1)N(Cc1ccc(F)cc1)C3=O (stereo unspecified)
  Methyltransferases: i
#7 CC(=O)N1CCC(Cc2ccc(C(=O)N(C)Cc3cccnc3)cc2)CC1
  Methyltransferases: i
#8 Cc1ccc(CNC(=O)C2(C)Cn3cnc(C(=O)NCc4cccc(C)c4)c3C(=O)N2C2CC2)cc1 (stereo unspecified)
  Methyltransferases: i
#9 Cc1ccc(C(=O)Cn2nc3n(Cc4ccc(F)cc4)c(=O)c4ccccc4n3c2=O)c(C)c1
  Methyltransferases: i
#10 Cn1cc(S(=O)(=O)NC2CC(c3cc(N4CCC(O)C4)ncn3)C2)cn1 (stereo unspecified)
  Methyltransferases: i

Retrieved by compound from above (two):
#8 Cc1ccc(CNC(=O)C2(C)Cn3cnc(C(=O)NCc4cccc(C)c4)c3C(=O)N2C2CC2)cc1 (stereo unspecified)
  Methyltransferases: i
#6 COc1ccc2cc3n(c2c1)CC(C)(C(=O)NC1CCCC1)N(Cc1ccc(F)cc1)C3=O (stereo unspecified)
  Methyltransferases: i

Further entries:
#11 COc1cc(-c2cccc(O)c2)cc2c1OCO2
  Methyltransferases: ?
#12 CC(C)N1C(=O)C2(CCCCC2)C1C(=O)NCc1nc2ccccc2n1C (stereo unspecified)
  Methyltransferases: i
#13 Cc1n[nH]c(C)c1Cc1sc2c(c1C(=O)N1C[C@H](O)CO1)c(=O)n(C)c(=O)n2CC(C)C
  Methyltransferases: i
#14 O=C(/C=C/c1ccc(CN(CCO)CCc2c[nH]c3ccccc23)cc1)NO
  Methyltransferases: +
#15 CC(C)NC(=O)N[C@H]1C[C@H]2C(=O)NC[C@@H](CCC(=O)N3CCN(c4ccccn4)CC3)N2C1
  Methyltransferases: i
#16 CCC(C)NC(=O)c1ccc2c(=O)n(C)c3nn(CC(=O)Nc4ccccc4C)c(=O)n3c2c1 (stereo unspecified)
  Methyltransferases: i
#17 CC(C)Cn1c(=O)c2ccc(C(=O)NC3CCCCC3)cc2n2c(=O)n(CC(N)=O)nc12
  Methyltransferases: i
#18 COc1cccc(CN2C(=O)CSc3c(c4ccccc4n3C)C2C(=O)NCCCOC(C)C)c1 (stereo unspecified)
  Methyltransferases: i
#19 CC(=O)OC1C[C@@]2(C)[C@@H](CC[C@@H](C)[C@]23Cc2c(O)cc4c(c2O3)CNC4=O)C(C)(C)[C@@H]1O (stereo partly specified)
  Methyltransferases: i
#20 CCC1CCCCN1CCCNC(=O)CCn1ccc2cc(S(=O)(=O)N3CCCCC3)ccc21 (stereo unspecified)
  Methyltransferases: i

Values in list order from above:
Entries 8 to 16 in Methyltransferases: i, i, i, ?, i, i, +, i, i

Additional records follow.
#21 CCCC1c2cccn2CCN1C(=O)Nc1ccc(C)c(Cl)c1 (stereo unspecified)
  Methyltransferases: i
#22 Cc1ccc(C)c(N2CCN(C(=O)CN(C)S(=O)(=O)c3ccc4[nH]c5c(c4c3)CCCC5)CC2)c1
  Methyltransferases: i
#23 CC1(NC(=O)c2ccc(C#Cc3cccc(F)c3)cn2)COC1
  Methyltransferases: ?
#24 CO[C@H]1C[C@@H]2CC[C@@H](C)[C@@](O)(O2)C(=O)C(=O)N2CCCC[C@H]2C(=O)O[C@H]([C@H](C)C[C@H]2CC[C@@H](OP(C)(C)=O)[C@H](OC)C2)CC(=O)[C@H](C)/C=C(\C)[C@@H](O)[C@@H](OC)C(=O)[C@H](C)C[C@H](C)/C=C/C=C/C=C/1C
  Methyltransferases: i
#25 O=C(C1CCCN1[S+](=O)([O-])c1cccc(C(F)(F)F)c1)N1CCC(N2CCCC2=O)CC1 (stereo unspecified)
  Methyltransferases: i
#26 O=C(CCc1nnc2n(CCc3ccccc3)c(=O)c3ccccc3n12)NCc1cccnc1
  Methyltransferases: i
#27 COc1ccc(OC)c(-c2cc(Cl)c3c(c2)CC(CNC(=O)c2c(F)cccc2F)O3)c1 (stereo unspecified)
  Methyltransferases: i
#28 COCC1CN(C2CCC2)CC12CCN(C(=O)NCCc1ccccc1)CC2 (stereo unspecified)
  Methyltransferases: i
#29 CC(Nc1nc2c(S(=O)(=O)c3ccc(Cl)cc3)nnn2c2ccccc12)c1ccccc1 (stereo unspecified)
  Methyltransferases: i
#30 COc1ccc2cc3n(c2c1)CC(C)(C(=O)NC1CCCC1)N(C1CCCCCC1)C3=O (stereo unspecified)
  Methyltransferases: i
#31 COCC1CN(C)CC12CCN(C(=O)Cc1ccc(OC)c(Cl)c1)CC2 (stereo unspecified)
  Methyltransferases: i
#32 O=C1CN(Cc2cc3cc4c(cc3[nH]c2=O)OCO4)CCCN1
  Methyltransferases: i
#33 NC(=O)c1cccc(CC2CCN(C(=O)c3ccnc(-n4cnnc4)c3)C2)c1 (stereo unspecified)
  Methyltransferases: i

Bioassay records as filed in PubChem BioAssay.

A portion of the library; rates above refer to the full screens.
